KCNQ2 block: KCNQ2 potassium channel inhibitors, primary screen, cell-based, CHO-K1, FluxOR thallium flux, B-score (AID 2156) | B-score at 10 µM | 1.1% of 310,000 active | 20 min; hits give low values; only compounds with negative scores are shown here; some inactives read as strong as hits | Potassium voltage-gated channel subfamily KQT member 2 (Rattus norvegicus), O88943;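 active = fluorescence ratio B-score at most minus 3 library SDs, with starting brightness B-score within 2 library SDs, cut at about -5.5 in these data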
Target sequence (O88943 whole entry, looked up): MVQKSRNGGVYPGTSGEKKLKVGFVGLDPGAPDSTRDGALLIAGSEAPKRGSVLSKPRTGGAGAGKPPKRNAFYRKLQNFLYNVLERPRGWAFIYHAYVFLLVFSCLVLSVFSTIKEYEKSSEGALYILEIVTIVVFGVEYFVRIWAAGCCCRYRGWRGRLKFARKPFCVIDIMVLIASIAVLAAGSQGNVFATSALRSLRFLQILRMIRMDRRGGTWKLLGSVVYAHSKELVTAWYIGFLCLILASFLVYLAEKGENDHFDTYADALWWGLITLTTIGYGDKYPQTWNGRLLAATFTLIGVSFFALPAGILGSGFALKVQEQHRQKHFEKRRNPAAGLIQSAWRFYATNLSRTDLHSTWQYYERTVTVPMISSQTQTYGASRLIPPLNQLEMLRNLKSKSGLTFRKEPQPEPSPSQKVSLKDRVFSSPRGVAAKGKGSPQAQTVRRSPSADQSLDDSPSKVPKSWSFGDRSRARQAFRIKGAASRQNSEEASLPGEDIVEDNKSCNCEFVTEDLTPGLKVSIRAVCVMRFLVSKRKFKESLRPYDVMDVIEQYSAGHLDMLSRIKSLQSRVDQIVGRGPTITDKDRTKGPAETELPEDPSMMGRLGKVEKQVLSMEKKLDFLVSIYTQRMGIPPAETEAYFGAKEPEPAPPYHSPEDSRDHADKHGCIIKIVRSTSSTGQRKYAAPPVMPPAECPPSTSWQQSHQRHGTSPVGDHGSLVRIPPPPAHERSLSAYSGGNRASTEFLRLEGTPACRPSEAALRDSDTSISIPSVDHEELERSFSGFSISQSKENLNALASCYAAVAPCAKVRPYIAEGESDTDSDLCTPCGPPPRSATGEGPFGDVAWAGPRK
KCNQ2 block baseline: second read-out of KCNQ2 block, no call of its own (marks repeat the call); B-score; measured here: initial fluorescence intensity artifact check;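 brightness before thallium and not channel activity; 0 = typical well and far values either way flag optical interference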
An asterisk follows results filed as active; i = inactive. Some of the compounds tested. The share of hits here may be higher or lower than overall.

SMILES	KCNQ2 block	KCNQ2 block baseline
CCCc1nc2ccccc2c(=O)n1-c1ccc(O)cc1	i	-1.42
Cc1ccc(N2C(=O)NC(=O)C3(Cc4ccccc4N4CCCC43)C2=O)cc1 (configuration not stated)	i	-0.05
CCn1c(O)c(C=Nc2ccc(N3CCOCC3)c(Br)c2)c(=O)n(CC)c1=S	i	1.02
CCCCCCCCCCCCn1ccc(=N)cc1	i	10.6
CCOc1ccc(-c2cc(C)[n+](CCc3ccc(OC)c(OC)c3)c(-c3ccc(OCC)cc3)c2)cc1	-5.78*	-3.11*
CC1CCCN(C(=O)CN2C3CCC2CC(O)(c2ccc(F)cc2)C3)C1 (configuration not stated)	i	0.24
COc1cccc(OC)c1CN1CCCC(C(=O)c2cccc(Cl)c2)C1 (configuration not stated)	i	1.73
Cc1nc2cc(-c3ccccc3)nn2c(C)c1CCC(=O)N1CCC2(CC1)OCCO2	i	0.32
O=C(Nc1ccc2c(c1)OCO2)c1cn(Cc2ccc(F)cc2)nn1	i	-0.82
COc1ccc2ccc(O)c(CN3CC=C(c4ccccc4)CC3)c2c1	i	1.05
CCn1c(C)c(C(=O)NCCc2ccccc2)c2cc(OC)ccc21	i	-0.06
CC(=O)O[C@H]1CCC2C3CCC4=CC(=O)CCC4=C3C=C[C@@]21C (some centres not stated)	i	-0.89
C[C@@]1([C@@H](NP(=O)(c2ccccc2)c2ccccc2)c2ccccc2)C[C@H]1CCO	i	-1.15
O=Cc1cn(Cc2c(F)cccc2Cl)c2ccccc12	i	0.33
COc1ccc(CCNCC2CCCO2)cc1 (configuration not stated)	i	-0.42
C=Cn1ccnc1P(=S)(c1ccc(N(C)C)cc1)c1nccn1C=C	i	-0.4
CCC(=NC1CC1)c1c(O)n(C2CCCCC2)c(=O)[nH]c1=O	i	-0.4
COc1ccc(O)c(CN2CCCC(C(=O)c3ccccc3SC)C2)c1 (configuration not stated)	i	-0.21
N#CCCn1cc(C(=O)Nc2ccc(F)cc2)c(-c2ccccc2)n1	i	-1.24
CC1(C(=O)O)CCCC2(C)c3cc(O)ccc3CCC12 (configuration not stated)	i	-0.1
Cc1ccccc1-n1c(C)nc2ccccc2c1=O	i	-1.06
C=CCN1C(=O)C2(C(C(=O)OCC)=C(N)Oc3c2c(=O)oc2ccccc32)c2ccccc21 (configuration not stated)	i	0.05
CCCCCCCCCCCCCCCC[N+](C)(C)C	i	8.67
Cn1cc[n+](C)c1P(=S)(c1ccccc1)c1ccccc1	i	0.69
CN1CCN(c2ccc(C(F)(F)F)cc2N)CC1	i	1.41
CCCCn1c(=O)c(C=Nc2cc([N+](=O)[O-])ccc2OC)c(O)n(CCCCl)c1=O	i	-1.73
CC1=CC2/C=C(\C)CCC(O)C(O)/C=C/C(=O)C23C(=O)NC(CC(C)C)C3C1C (configuration not stated)	i	0.21
COC(=O)c1c(C)n(Cc2ccccc2)c2ccc(O)cc12	i	1.01
COc1ccc(NC(=O)CN2CC=C(c3ccccc3)CC2)cc1S(=O)(=O)N1CCOCC1	i	-0.44
CCOP(=O)(OCC)c1cccc(OP(=O)(c2cccc([N+](=O)[O-])c2)c2cccc([N+](=O)[O-])c2)c1	i	1.24
CCCCn1c(O)c(C(C)=NCc2cccnc2)c(=O)[nH]c1=O	i	1.89
O=c1cccc2n1CC1CC2CN(S(=O)(=O)c2ccc(F)cc2)C1 (configuration not stated)	i	1.69
O=c1c2ccccc2nc(/C=C/c2ccc3c(c2)OCO3)n1-c1ccccc1	i	1.52
Cc1ccc(NP(=O)(Nc2ccc(C)cc2)Oc2ccccc2)cc1	-7.08*	0.97*
c1cc2c(cc1CCNC1C3CC4CC(C3)CC1C4)OCO2 (configuration not stated)	i	-0.9
COc1nc(NC(C)C)nc(NC(C)C)n1	i	-0.99
C=CC[N+]1(C)C2CCC1CC(O)C2 (configuration not stated)	i	2.83
CN[C@@H]1C[C@@H](c2ccc(Cl)c(Cl)c2)c2ccccc21	i	0.02
Cc1ccc(C)c(NC(=O)CSc2nnc([C@@H](N)Cc3c[nH]c4ccccc34)o2)c1	i	0.07
O=P(Nc1cccnc1)(Oc1ccccc1)Oc1ccccc1	i	-1.11
CCCNS(=O)(=O)c1ccc(OCC(=O)N2CCN(C)CC2)cc1	i	0.04
Cc1c(NC(=O)C(C)OC(=O)Cc2ccccc2)c(=O)n(-c2ccccc2)n1C (configuration not stated)	i	1.06
CCOC(=O)C1(CCc2ccccc2)CCN(Cc2ccco2)CC1	i	0.39
O=C(C1CCN(c2nc3ccc(Br)cc3s2)CC1)N1CCC2(CC1)OCCO2	i	0.86
Cc1ccc(NC(=O)CCNC(=O)N2C[C@H]3C[C@@H](C2)c2cccc(=O)n2C3)c(C)c1	i	1.17
COc1ccc(C(O)C(C)NC(C)C(O)c2ccc(OC)cc2)cc1 (configuration not stated)	i	-0.12
CC(=O)OC1N=C(c2ccccc2)c2ccccc2NC1=O (configuration not stated)	i	-1.49
CCOc1ccccc1-n1c(O)c(C=NCc2ccc3c(c2)OCO3)c(=O)[nH]c1=O	i	-0.86
CN(C)C(Cc1ccc(C#N)cc1)C(=O)c1ccccc1 (configuration not stated)	i	-0.01
COP(=S)(OC)c1c(C)nn(CCC#N)c1NC(=O)c1ccc(Cl)cc1	i	1.22
Cc1cc(NC(=O)CCl)no1	i	0.89
Cn1c(=O)c2c(ncn2CCCl)n(C)c1=O	i	1.11
CC(NS(=O)(=O)OCC(Cl)(Cl)Cl)c1ccccc1 (configuration not stated)	i	-0.12
CCc1ccc(N2C(=O)NC(=O)/C(=C\C=C\c3ccco3)C2=O)cc1	i	0.5
Nc1ccccc1C(=O)OCC(=O)Nc1ccc(Br)cc1F	i	0.01
CCOc1ccc(NC(=O)N2C[C@H]3C[C@@H](C2)c2cccc(=O)n2C3)cc1	i	1.58
CCc1cccc2c(C#N)cn(CC(=O)N3CCOCC3)c12	i	1.51
Clc1ccc(CNC2CN3CCC2CC3)cc1 (configuration not stated)	i	3.59
COc1ccc(OC)c(CN2CCN(C(=O)COc3cccc(C)c3)CC2)c1	i	0.26
COc1cccc(-c2nc(CS(=O)CC(=O)N3CCC4(CC3)OCCO4)c(C)o2)c1 (configuration not stated)	i	3.46

More records:
SMILES	KCNQ2 block	KCNQ2 block baseline
O=C1NC(=O)C(=Cc2ccc3ccccc3c2)C(=O)N1	i	-0.68
Cc1ccc(-c2nc(N(C)C3CCN(C)CC3)c3ccccc3n2)cc1	i	-0.3
O=Cc1cn(Cc2cccc(F)c2)c2ccccc12	i	0.33
COC(=O)C1=C(c2ccc(S(C)(=O)=O)cc2)C[C@@H]2CC[C@H]1N2C(=O)NCCO	i	-0.18
Cc1cccc(N=Cc2c(O)n(C)c(=O)n(C)c2=O)c1	i	0.11
Nc1nonc1OCCCCOc1nonc1N	i	-0.96
Cc1ccc(-n2c(O)c(C=NC3CCCC3)c(=O)[nH]c2=O)c(C)c1	i	1.15
O=C1/C(=C/c2ccncc2)N2CCC1CC2	i	-0.57
O=C(C1CCN(S(=O)(=O)N2CCOCC2)CC1)N1CCC2(CC1)OCCO2	i	-0.24
CCCCOc1nc2ccccc2c(=O)n1-c1ccccc1	i	-0.34
O=C(COc1ccc2ccccc2c1)N1CCN(CC2CC3C=CC2C3)CC1 (configuration not stated)	i	0.95
C[n+]1ccc(-c2ccncc2)cc1	i	-2
COc1ccccc1-n1c(O)c(C=NCCCn2ccnc2)c(=O)[nH]c1=O	i	0.91
N[C@@H](Cc1c[nH]c2ccccc12)c1nnc(SCc2c(F)cccc2Cl)o1	i	0.61
Cc1c(C)c2ccc(OCC(=O)N3CCC(C(=O)O)(c4ccccc4)CC3)cc2oc1=O	i	0.2
O=C1NC(=O)N(Cc2ccccc2)C(=O)/C1=C/C=C/c1ccco1	i	0.01
Cn1c(=O)n(CC(=O)N2CCC3(CC2)OCCO3)c(=O)c2ccccc21	i	2.83
CCCC(=O)NC(Oc1ccc(C(C)=O)cc1)C(Cl)(Cl)Cl (configuration not stated)	i	-0.04
Cc1ccc2c(c1)CC1(CN2C)C(=O)NC(=O)N(C(C)C)C1=O (configuration not stated)	i	-0.01
CN1C(=O)/C(=C/c2ccc(Cl)s2)C(=O)NC1=S	i	-0.06
Oc1ccc(C2NCc3ccccc3-n3cccc32)cc1Cl (configuration not stated)	i	2.45
O=C(C1CCC(=O)N1C1CCCCC1)N1CCC2(CC1)OCCO2 (configuration not stated)	i	-0.04
CCCCn1c(C)c(C(=O)OCC)c2c(CN3CCCC3)c(O)ccc21	i	0.06
Cc1ccc(N2CCN(CCc3ccccc3)CC2)cc1	i	0.29
COC(=O)C1=C(c2ccccc2)C[C@@H]2CC[C@H]1N2C(=O)NC(C)C	i	-0.38
CCCCCn1c(NC(=O)c2ccco2)c(C(=O)OCC)c2nc3ccccc3nc21	i	-0.78
NC(=O)OCCCc1ccccc1	i	1.15
O=C(Cc1ccccc1[N+](=O)[O-])N1CCN(Cc2ccc3c(c2)OCO3)CC1	i	0.17
COc1ccc(Cc2c(O)[nH]c(=O)[nH]c2=O)c(OC)c1	i	-2.21
Cc1cccc(OP(=O)(Oc2ccccc2)OC(c2ccccc2)C(F)(F)F)c1 (configuration not stated)	-6.49*	-0.33*
N#Cc1c(/N=C/c2ccc(O)cc2O)sc2c1C1CCN2CC1	i	2.16
Cc1sc2nc(COC(=O)Cc3ccccc3)[nH]c(=O)c2c1C	i	-0.3
Cc1nc2ccccc2c(=O)n1-c1ccc(C(=O)O)cc1	i	-1.66
CCCCCc1nc2ccccc2c(=O)n1-c1ccc(Cl)cc1[N+](=O)[O-]	i	2.66
O=C(c1cccc2ccccc12)C1CCCN(Cc2ccon2)C1 (configuration not stated)	i	-2
Cc1c2cnn(CC(=O)N3CCC4(CC3)OCCO4)c(=O)c2c(C)n1Cc1ccccc1	i	0.01
CCOC(=O)c1c(C)n(Cc2ccco2)c2ccc(O)cc12	i	-2.37
CCN1CCN(c2cn[nH]c(=O)c2Cl)CC1	i	0.44
CN(C)C(=S)SSC(=S)N(C)C	-10.3*	-0.34*
COC(=O)C1=C(c2cc3ccccc3o2)C[C@@H]2CC[C@H]1N2C(=O)NC(C)C	i	0.25
CN(Cc1ccccc1)C1CCCN(C(=O)COc2ccccc2Cl)C1 (configuration not stated)	i	-0.71
Cc1c(N=Cc2c(O)n(CCc3ccccc3)c(=O)[nH]c2=O)c(=O)n(-c2ccccc2)n1C	i	0.19
Cc1ccccc1-n1c(-c2ccoc2)nc2ccccc2c1=O	i	-1.07
CCOC(=O)C1CCN(/C=C2/C(=O)NC(=O)N(Cc3ccco3)C2=O)CC1	i	1.72
Brc1ccc2c(c1)C(OC1CN3CCC1CC3)c1ccccc1CS2 (configuration not stated)	i	1.32
Cc1ccc2[nH]c(=S)n(-c3cccnc3)c(=O)c2c1	i	2.67
CCOC(=O)C1(CCc2ccccc2)CCN(Cc2ccc3c(c2)OCCO3)CC1	i	1.31
Cc1ccc(CN2C(=O)NC(=O)C3(Cc4c(nc5ccccn5c4=O)N4CCCCCC43)C2=O)cc1 (configuration not stated)	i	0.53
CCN(CC)C(=O)c1ccc(NC(=O)CNC(C)c2cccc3ccccc23)cc1 (configuration not stated)	i	-1.82
CCc1ccccc1NC(=O)CNCc1ccccc1	i	-0.49
Cn1c(O)c(C(=Nc2ccc(F)cc2)c2ccccc2)c(=O)n(C)c1=O	i	-0.05
CCCCc1ncc(CN2CCCC(C(=O)c3ccc(SC)cc3)C2)[nH]1 (configuration not stated)	i	1.74
CC[C@@H]1C=CC=CC[C@H](C)[C@@H](O)[C@@H](C)C(=O)[C@H](C)[C@@H](O)[C@H](C)C(=O)[C@H](C)[C@@H](O)[C@H](C)C=CC(=O)O[C@H]2[C@@H](C)[C@@H](CC1)O[C@@]1(CC[C@@H](C)[C@@H](C[C@H](C)O)O1)[C@@H]2C	i	-1.63
COc1cc(OC)c2c(c1)OCC1CON(C)C21 (configuration not stated)	i	0.18
COc1cc2c(cc1C=O)OCO2	i	1.28
